# GLA inh pH 4.5: qHTS Assay for Inhibitors of Human alpha-Galactosidase at pH 4.5 | Alpha-galactosidase A (Homo sapiens), P06280 | purified enzyme, 4-MU-alpha-Gal fluorescence, pH 4.5 | activity change, negative = inhibition, % at 105 µM | 230,000 tested, under 10 active; inconclusive = small, poorly fitted or top-dose-only inhibition, or a rising curve; inactive = flat fitted curve, though single readings scatter; no compound was filed as active;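 further: 0% = full activity with enzyme and -100% = basal without enzyme; dose as in the result columns while the protocol names 77 µM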
# Rango-impB inh: qHTS Assay for Inhibitors of Rango (Ran-regulated importin-beta cargo) - Importin beta complex formation; Importin subunit beta-1 (Homo sapiens), Q14974; Potency, µM (highest dose often 92.2 µM), for inactives: at the top dose inhibition of complex formation; AID 540263, 2011; hit rate 0.031% among 340,000; Rango CFP/YFP FRET sensor + importin beta, 45 min; active = rising FRET ratio curve, often small or poorly fitted; inconclusive = mostly compound fluorescence or quenching in the first reads; inactive = flat curves in all reads;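 further: potency means the concentration at half of the fitted maximal effect; 0% = DMSO wells and 100% = buffer wells lacking importin beta; nearly all actives have a fitted effect of over 15% in size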
# Target sequence (Q14974 whole entry, looked up): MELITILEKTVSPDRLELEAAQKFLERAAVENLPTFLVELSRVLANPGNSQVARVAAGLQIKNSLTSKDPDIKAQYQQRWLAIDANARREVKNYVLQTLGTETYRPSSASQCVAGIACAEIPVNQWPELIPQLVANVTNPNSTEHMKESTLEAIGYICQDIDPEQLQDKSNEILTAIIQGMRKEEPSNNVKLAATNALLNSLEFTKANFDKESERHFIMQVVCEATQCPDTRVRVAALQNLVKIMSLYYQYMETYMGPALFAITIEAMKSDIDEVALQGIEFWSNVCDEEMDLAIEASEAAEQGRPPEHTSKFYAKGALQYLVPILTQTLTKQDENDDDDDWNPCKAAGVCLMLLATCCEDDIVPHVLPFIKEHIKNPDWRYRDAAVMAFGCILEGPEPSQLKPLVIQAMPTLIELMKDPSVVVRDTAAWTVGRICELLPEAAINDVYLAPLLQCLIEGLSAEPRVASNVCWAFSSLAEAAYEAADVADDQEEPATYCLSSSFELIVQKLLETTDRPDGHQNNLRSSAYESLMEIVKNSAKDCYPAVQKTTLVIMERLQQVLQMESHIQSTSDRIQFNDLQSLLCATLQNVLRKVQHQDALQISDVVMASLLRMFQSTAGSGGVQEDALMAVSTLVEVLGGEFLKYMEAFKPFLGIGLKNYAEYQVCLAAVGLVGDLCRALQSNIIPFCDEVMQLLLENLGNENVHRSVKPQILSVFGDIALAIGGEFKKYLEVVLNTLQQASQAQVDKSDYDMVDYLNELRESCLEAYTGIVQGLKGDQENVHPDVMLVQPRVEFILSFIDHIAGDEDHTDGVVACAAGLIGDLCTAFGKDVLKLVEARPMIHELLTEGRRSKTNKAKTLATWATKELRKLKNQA
#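 FRET biosensor (snurportin 1 IBB flanked by EYFP and cerulean), 50 nM, with compound 5 min, then 0.125 microM importin beta in PBS, 1 mM DTT, 0.02% Tween-20, 0.1% BSA. CFP/YFP ratio read after 45 min at room temperature; pre-read flags interference.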
# Rango release inh: qHTS Assay for Inhibitors of RanGTP induced Rango (Ran-regulated importin-beta cargo) - Importin beta complex dissociation; Potency, µM (doses to about 46.1 µM), for inactives: at the highest dose activity change, negative = inhibition; Snurportin-1 (Homo sapiens) + GTP-binding nuclear protein Ran (Homo sapiens) + Importin …; Biochemical FRET Rango-importin beta, RanGTP-induced dissociation; hit rate 0.071% among 340,000; active means falling FRET ratio curve, often poorly fitted, with flat reads before Ran was added; inconclusive means other falling curves, or compound fluorescence or quenching; inactive means flat or rising ratio curve;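 further: potency means the concentration at half of the fitted maximal effect; % of control where 0% means no effect; nearly all actives have a fitted effect of over 45% in size; -100% = wells without RanGTP and RCC1; the record marks most hits as doubtful in a second field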
#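 FRET read at 45 min, room temperature: inhibitors block the CFP/YFP signal rise when RanGTP (0.6 uM Ran, 2 mM GTP, 0.2 uM RCC1) frees Rango (0.1 uM) from importin beta (0.25 uM). Pre-read after 5 min compound exposure flags interference.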
# miR-21 reporter: qHTS Assay for Modulators of miRNAs and/orActivators of miR-21. HeLa miR-21 FLuc reporter, luciferase, 48 h. Potency, µM (doses to about 38.3 µM), without a hit: at the highest dose reporter change, positive = more light. 340,000 tested, under 10 active. AID 2288, 2010; active = well fitted rising curve with a large enough effect; inconclusive = small, poorly fitted or top-dose-only effect; inactive = no such curve, though single readings can be large or run the other way;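 further: % of control where 0% means no effect; miR-21 action dims this reporter so a rising signal means less miR-21 action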
#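 HeLa cells endogenously expressing miR-21, stably carrying CMV-driven firefly luciferase with a downstream miR-21 binding site, 2000 cells/well. Titrations up to approximately 40 uM, 48 hours; luciferase luminescence read.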
# * = called active by the depositor; u = inconclusive; x = not tested or not shown.
compound | GLA inh pH 4.5 | Rango-impB inh | Rango release inh | miR-21 reporter
CCN(CC)c1ccc(/C=C(/C#N)C(=O)NCc2ccccc2)o1 | -12 | u | u | -72%
CCC(C)NC(=O)N1c2ccccc2Sc2ccccc21 (stereo not given) | 2 | -0.1% | -4% | -1%
CCn1c(/C=C/c2ccccc2)nc2ccccc21 | 3 | 0.9% | 13% | -26%
NC(=O)N/N=C/c1sc(N2CCCCC2)nc1-c1cccs1 | x | u | u | x
O=C1CC2(CCCC2)CC(=O)N1c1ccccc1 | -4 | -2.3% | 2% | 0%
COc1cc(C(=O)NC2CCN(C)CC2)ccc1Nc1ncc2c(n1)N(C1CCC(O)CC1)CCC(=O)N2C (stereo not given) | x | 2.8% | -13% | x
C(=N\n1cnnc1)/c1cn(Cc2ccccc2)c2ccccc12 | -2 | 3.5% | -21% | -5%
COc1ccc(-c2c(C)oc3c(CN4CCOCC4)c(O)ccc3c2=O)cc1 | -4 | 0.4% | 0% | 4%
CC1CN(S(=O)(=O)Cc2ccccc2)CC(C)O1 (stereo not given) | 1 | u | 6% | -1%
Cc1cccc(N2CCN(C(=O)c3ccc(CS(=O)Cc4cccc(Cl)c4)o3)CC2)c1C (stereo not given) | x | -3.9% | 1% | 8%
COc1cc2c(cc1OC)CN(C(=O)c1cccc(S(=O)(=O)N3CCc4ccccc43)c1)CC2 | x | -0.6% | -13% | x
Cc1oc(-c2ccccc2F)nc1CS(=O)CC(=O)NCc1ccccn1 (stereo not given) | x | 0.1% | 12% | 1%
COc1ccccc1NC(=O)COC(=O)C1CCCC1 | x | -0.3% | 0% | x
Cc1ccc(-c2cc(C(=O)NC3CCCC3)no2)cc1 | x | 3.3% | u | -69%
CCCC(c1nnnn1CC1CCCO1)N1CCN(c2ccccc2)CC1 (stereo not given) | 1 | 1.0% | -16% | -1%
O=C(CCC(=O)N(CC(=O)NC1CCCC1)C1CCCC1)Nc1ccccn1 | -1 | u | -18% | -5%
Cc1ccccc1-n1nc2c(c1NC(=O)c1ccc(Br)o1)CSC2 | -7 | u | -3% | -2%
CN=C(Nc1cc(C)nn1-c1ccccc1)c1ccccc1F | -4 | 0.3% | 10% | -5%
Cc1ccc(N2C(=O)c3ccccc3C2=O)cc1Cl | 2 | 3.5% | 5% | -5%
Cc1noc(C)c1CSCC(=O)NC1=NCCS1 | 0 | -0.2% | 0% | -6%
O=C(COC(=O)COc1cccc(Br)c1)Nc1c(Cl)cccc1Cl | -21 | 2.6% | -11% | -3%
COc1ccc(Cn2nnc3c(=O)[nH]c(C4CCN(S(=O)(=O)c5ccc(C)cc5)CC4)nc32)cc1 | x | 0.2% | u | -2%
CC(=O)NNC(=S)NC(=O)c1ccccc1 | 4 | -2.2% | 3% | -7%
Cc1ncc([N+](=O)[O-])n1CCOC(=O)Nc1ccc(Cl)c(Cl)c1 | -20 | -2.5% | 0% | -7%
CN(CC(=O)Nc1cccc(F)c1)CC(=O)N(C)c1c(N)n(Cc2ccccc2)c(=O)[nH]c1=O | x | -0.1% | -11% | x

# Single records, as listed above. Screens in order: GLA inh pH 4.5, Rango-impB inh, Rango release inh, miR-21 reporter
# `COc1ccccc1NC(=O)COC(=O)C1CCCC1` across the screens: x, -0.3%, 0%, x
# `Cc1noc(C)c1CSCC(=O)NC1=NCCS1` across the screens: 0, -0.2%, 0%, -6%
# `COc1ccc(-c2c(C)oc3c(CN4CCOCC4)c(O)ccc3c2=O)cc1` across the screens: -4, 0.4%, 0%, 4%

# Three records picked at random from those above, as already listed:
compound | GLA inh pH 4.5 | Rango-impB inh | Rango release inh | miR-21 reporter
Cc1oc(-c2ccccc2F)nc1CS(=O)CC(=O)NCc1ccccn1 (stereo not given) | x | 0.1% | 12% | 1%
Cc1cccc(N2CCN(C(=O)c3ccc(CS(=O)Cc4cccc(Cl)c4)o3)CC2)c1C (stereo not given) | x | -3.9% | 1% | 8%
COc1cc2c(cc1OC)CN(C(=O)c1cccc(S(=O)(=O)N3CCc4ccccc43)c1)CC2 | x | -0.6% | -13% | x

# Later entries:
compound | GLA inh pH 4.5 | Rango-impB inh | Rango release inh | miR-21 reporter
O=c1c2c3c(sc2nc(N2CCNCC2)n1CCc1ccccc1)CCCCC3 | -5 | -0.2% | 3% | -9%
Cc1ccc(S(=O)(=O)NNC(=O)Nc2ccc(C)c(C)c2)c(C)c1 | x | -1.0% | -9% | 3%
O=C(c1c(F)cccc1F)N1CCC(O)(c2cccnc2)CC1 | -4 | 5.1% | 0% | -5%
COc1cc(CNc2ccccc2SC)ccc1O | -4 | 1.4% | -26% | -14%
N#Cc1cccc(NC(=O)Cn2cnc(S(=O)(=O)N3CCc4ccccc43)c2)c1 | x | 0.7% | 13% | 17%
COc1cc(/C=N/NC(=O)COc2c(C)cc([N+](=O)[O-])cc2C)ccc1OC(=O)c1ccccc1 | -8 | -2.8% | 15% | -9%
Nc1nc(-c2cccnc2)nn1C(=O)c1ccccc1Cl | 4 | -3.5% | -3% | 0%
Cc1cc(C(F)(F)F)nc(SCCN2CCCCC2)c1C#N | x | u | -3% | -3%
CC(=O)c1cccc(S(=O)(=O)N2CCC(C(=O)O)(c3ccccc3)CC2)c1 | x | 0.7% | 1% | 3%
O=C(Nc1ccc(F)cc1F)c1cc(-c2ccco2)on1 | -11 | 0.8% | -1% | -18%
COCC(C)n1c(SCC(=O)NNC(=O)c2ccccc2)nc2ccccc2c1=O (stereo not given) | 9 | 0.5% | -18% | -6%
CC(NC(=O)c1cnc2n(c1=O)CCS2)c1ccccc1 (stereo not given) | 7 | -2.4% | 14% | 1%
Cc1cc(N2CCCCC2)ccc1[N+](=O)[O-] | 26 | -5.3% | u | -9%
COc1ccccc1N=C1SC(C)CN1C(=O)C1CCC1 (stereo not given) | -6 | x | x | -3%
CCC(C)Sc1ccc([C@H]2N[C@@](Cc3ccccc3)(C(=O)OC)[C@H]3C(=O)N(CC)C(=O)[C@@H]23)cc1OC (stereo not given in full) | x | 3.8% | 5% | x
O=C(CSc1ccsc1[N+](=O)[O-])Nc1cccc(F)c1 | -11 | -3.2% | 31% | 3%
Cc1ccc(C(=O)COC(=O)CNC(=O)c2ccc(N3C(=O)c4ccccc4C3=O)cc2)cc1C | -2 | 7.6% | 18% | -8%
Cc1sc(NC(=O)c2sc3nc4c(C)cccc4cc3c2N)c(C#N)c1C | -13 | u | -6% | -27%
C[C@H]1COC(=O)[C@@H](CC(=O)OC(C)(C)C)C/C=C\C[C@@H](CC(=O)N[C@H](CO)Cc2ccccc2)C(=O)N1 | x | -1.2% | -26% | x
COc1ccc(CCNC(=O)CSc2nnc3ccccn23)cc1 | 5 | -0.5% | -13% | -2%
CS(=O)(=O)c1ccc(Cl)c(NC(=O)CN2CCCC2c2ccc3c(c2)OCCCO3)c1 (stereo not given) | x | -0.9% | -1% | x
O=C(NCCN1CCOCC1)Nc1cccc(Cl)c1 | 3 | -0.1% | 2% | -9%
CCC(Sc1nncn1C)C(=O)Nc1nnc(-c2ccccc2Cl)s1 (stereo not given) | 3 | 0.7% | -8% | -43%
CCOc1ccc(NC(=O)CN(C)C(=O)c2cccc(S(=O)(=O)N3CCN(C)CC3)c2)cc1OCC | x | 0.2% | -1% | x
C=CCOc1c(OC)cc(Cl)cc1C1NC(=O)NC(C)=C1C(C)=O (stereo not given) | 7 | -3.6% | u | -8%

# Limited to GLA inh pH 4.5, miR-21 reporter and Rango-impB inh, for two of the compounds above:
Compound	GLA inh pH 4.5	miR-21 reporter	Rango-impB inh
Cc1ccc(S(=O)(=O)NNC(=O)Nc2ccc(C)c(C)c2)c(C)c1	x	3%	-1.0%
O=C1CC2(CCCC2)CC(=O)N1c1ccccc1	-4	0%	-2.3%

# Additional records follow.
compound | GLA inh pH 4.5 | Rango-impB inh | Rango release inh | miR-21 reporter
COc1ccc(C2N(c3ccccc3)C(=O)C2(F)F)cc1OC (stereo not given) | x | 3.3% | 3% | -4%
CC(OC(=O)[C@H](C)NC(=O)c1ccccc1Cl)C(=O)NCc1ccc2c(c1)OCO2 (stereo not given in full) | x | 0.1% | -5% | x
Cn1nc(C(=O)OCC(=O)Nc2sccc2C(N)=O)c2ccccc2c1=O | 2 | 0.0% | 12% | 3%
NC(=O)c1cc([N+](=O)[O-])c(Cl)cc1NCc1ccccn1 | x | -3.1% | 3% | x
Cc1cc(=O)[nH]c(SCc2nnnn2-c2ccc(Cl)cc2)n1 | -1 | 2.7% | -2% | -6%
Cc1ccc(CN(CC(=O)NCc2ccc3c(c2)OCO3)C(=O)c2csnn2)cc1 | x | 5.7% | 6% | 0%
COc1ccc(/C=C/C(=O)OCC(=O)Nc2c(C)cccc2C)cc1 | 1 | -3.7% | 2% | -2%
CS(=O)(=O)N(CC(=O)Nc1cccc(Cl)c1)c1ccccc1Cl | -2 | -2.4% | 1% | 9%
O=c1oc2ccccc2c2c1ncn2CCN1CCOCC1 | 11 | 0.2% | -17% | -3%
O=c1[nH]c(=O)n(Cc2ccccc2)c2nc(-c3ccc(C(F)(F)F)cc3)n(CCO)c12 | x | 0.5% | -3% | -15%
Cc1cc(=O)oc2c(CN3CCCC3)c(O)ccc12 | x | u | -29% | -2%
N/C(=N\OC(=O)CCCCCN1C(=O)c2ccccc2C1=O)c1ccccc1 | -7 | -2.5% | 8% | -36%
COc1ccc(/C=N/NC(=S)NC2CCS(=O)(=O)C2)cc1 (stereo not given) | 6 | -2.4% | -21% | 0%
O=C(CCN1C(=O)C2CC=CCC2C1=O)Nc1ccccc1Cl (stereo not given) | x | 0.8% | -4% | -2%
CN(C(=O)COC(=O)c1c[nH]c(=O)[nH]c1=O)C1CCCCC1 | 2 | -1.5% | 9% | -1%
CCCSc1nc2cc(C)c(C)cc2n1CC(O)CO (stereo not given) | -1 | 0.5% | 1% | -28%
COc1cccc(C(=O)Nc2ccc3c(c2)n(C)c(=O)n3C)c1 | x | -0.4% | -3% | 0%
CCOCC(=O)Nc1cc([N+](=O)[O-])ccc1OC | 4 | -0.7% | -3% | 1%
Cc1sc2ncnc(NCC(c3ccco3)N(C)C)c2c1C (stereo not given) | 4 | 2.8% | 4% | 0%
CC(C)(NC(=O)NC(CO)c1ccccc1)c1cccc(C(C)(C)NC(=O)NC(CO)c2ccccc2)c1 (stereo not given) | x | -1.2% | 21% | x
O=C(Nc1cccc(S(=O)(=O)N2CCCCC2)c1)C1CCN(C(=O)c2ccc(Cl)cc2)CC1 | x | 0.1% | -1% | x
Cc1ccc2[nH]c(C(=O)N/N=C/c3ccccc3C(=O)O)c(-c3ccccc3)c2c1 | x | 5.2% | 1% | 20%
O=C(NCCCCc1ccccc1)C1CC(c2cc(C(F)(F)F)cc(C(F)(F)F)c2)=NO1 (stereo not given) | 0 | u | -32% | -1%
COc1ccccc1OCC(=O)OCc1cc(-c2ccco2)on1 | x | 0.6% | 0% | x
CCc1nnc2n1N=C(c1ccc([N+](=O)[O-])cc1)CS2 | -3 | 0.8% | -4% | 0%
COC(=O)C1CN(C(=O)c2ccc(OC(F)F)cc2)c2ccccc2O1 (stereo not given) | x | -0.4% | 16% | 2%
O=C(Nc1nnc(-c2ccncc2)o1)c1cccc(N2C(=O)CCC2=O)c1 | 5 | 1.4% | 23% | -1%
Cc1cc(C(F)(F)F)n(-c2nc(C(=O)NN)cs2)n1 | -4 | 0.2% | 11% | -9%
O=C(CN(c1ccc(F)cc1)S(=O)(=O)c1ccc2c(c1)OCCO2)NCC1CCCO1 (stereo not given) | -3 | -1.0% | 7% | -5%
Cc1cc(NC(=O)CSc2nc3ccc(Cl)cc3[nH]2)no1 | -6 | -1.6% | 2% | -3%
CC1CCc2c(sc(NC(=O)c3nc4ncccn4n3)c2C#N)C1 (stereo not given) | 3 | -7.6% | u | -20%
CCc1nc(SCC(=O)Nc2ccc3c(c2)OCCO3)c2oc3ccccc3c2n1 | 0 | 0.3% | 2% | -3%

# From PubChem

# Some of the compounds tested; count on the stated rates, not on these rows.
